Vaccinia stage: blocks a specific stage of Vaccinia orthopoxvirus infection, primary screen, cell-based, single point; Vaccinia-infected cells, mCherry/Venus stage reporter fluorescence; hits give low values; some inactives read as strong as hits; activity change (mCherry), % (concentration not given with the values); AID 1053133, 2014; 0.01% of 89,000 active;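 active means mCherry past -33% and 40 or more points under the early reporter, replicates agreeing; inconclusive means past -33% without that gap or agreement; tested in A549 cells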;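 further: scaled between vehicle wells and reference inhibitor wells; 23 nL library stock went into each well; one replicate is shown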
Vaccinia stage Venus: second read-out of Vaccinia stage, no call of its own (marks repeat the call); activity change (Venus), %; measured here: Venus reporter, other viral stage;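 negative = less Venus signal; first of two replicates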
The depositor's hits bear a star. This is a subset. The share of hits here may be higher or lower than overall.

What do the screens show for `COc1ccc(S(=O)(=O)Nc2ccc3c(c2)C(=O)N([C@H](C)CO)C[C@H](C)[C@@H](CN(C)C)O3)cc1`?
Vaccinia stage: 21.0; Vaccinia stage Venus: 8.4

Results for CO[C@H](CN(C)C(=O)c1ccccc1F)[C@@H](C)CN([C@H](C)CO)S(=O)(=O)c1ccc(C)cc1 ?
Vaccinia stage: 1.1; Vaccinia stage Venus: 1.1

Results for C[C@H](CO)N1C[C@H](C)[C@H](CN(C)C(=O)Nc2ccc(F)cc2)Oc2ccc(NS(C)(=O)=O)cc2CC1=O ?
Vaccinia stage: 11.0; Vaccinia stage Venus: 3.2

What do the screens show for `C[C@H]1CN([C@@H](C)CO)S(=O)(=O)c2ccc(Br)cc2O[C@H]1CN(C)C(=O)c1ccccc1F`?
Vaccinia stage: 8.4; Vaccinia stage Venus: 9.6

What do the screens show for `O=C(NCc1nc2ccccc2[nH]1)C1=C[C@H](c2ccc(Br)cc2)C[C@H](OCCCCO)O1`?
Vaccinia stage: -9.1; Vaccinia stage Venus: 1.9

Results for COc1ccc(CN(C)C[C@@H]2OCCCC[C@@H](C)Oc3ccc(NS(=O)(=O)c4cn(C)cn4)cc3C(=O)N([C@@H](C)CO)C[C@H]2C)cc1 ?
Vaccinia stage: 3.1; Vaccinia stage Venus: 2.3

What do the screens show for `C[C@@H]1CN([C@H](C)CO)C(=O)c2cccc(NS(=O)(=O)c3ccccc3)c2O[C@@H]1CN(C)Cc1ccc(C(=O)O)cc1`?
Vaccinia stage: 11.8; Vaccinia stage Venus: 9.9

How did CC=Cc1ccc2n(c1=O)C[C@H]1[C@H](CO)[C@@H](C(=O)NCC(F)(F)F)N(C(=O)c3cccnc3)[C@@H]21 (mixture of isomers) do in these assays?
Vaccinia stage: 1.8; Vaccinia stage Venus: 6.4

How did Cc1cc(C(=O)Nc2cccc3c2O[C@@H](CN(C)Cc2ccc(Oc4ccccc4)cc2)[C@H](C)CN([C@H](C)CO)C3=O)n(C)n1 do in these assays?
Vaccinia stage: inconclusive

How did CO[C@@H]1CN(C)C(=O)c2ccc(NC(=O)C3CC3)cc2OC[C@@H](C)N(C(=O)c2ccccn2)C[C@@H]1C do in these assays?
Vaccinia stage: 1.8; Vaccinia stage Venus: 10.3

What do the screens show for `C[C@H](CO)N1C[C@H](C)[C@@H](CN(C)C(=O)Nc2ccccc2)Oc2ncc(-c3cccnc3)cc2C1=O`?
Vaccinia stage: 11.8; Vaccinia stage Venus: 1.0

What do the screens show for `COc1ccc(S(=O)(=O)Nc2ccc3c(c2)C(=O)N([C@@H](C)CO)C[C@H](C)[C@H](CN(C)C(=O)Nc2ccc(C(F)(F)F)cc2)O3)cc1`?
Vaccinia stage: 15.7; Vaccinia stage Venus: 8.6

What do the screens show for `O=C(C[C@H]1C[C@@H]2c3cc(NC(=O)c4cccnc4)ccc3O[C@@H]2[C@@H](CO)O1)NCc1ccccc1F`?
Vaccinia stage: 30.7; Vaccinia stage Venus: 17.0

What do the screens show for `COCC(=O)N1[C@H](CO)[C@H](c2ccccc2-c2ccccc2F)[C@@H]1C#N`?
Vaccinia stage: 8.4; Vaccinia stage Venus: 6.3

Results for CCCNC(=O)N1C[C@H](O)COC[C@@H]2O[C@@H](CC(=O)N3CCN(C)CC3)CC[C@H]21 ?
Vaccinia stage: 0.3; Vaccinia stage Venus: 1.6

What do the screens show for `CC(C)C#Cc1cnc2c(c1)C(=O)N([C@@H](C)CO)C[C@H](C)[C@H](CN(C)C(=O)c1cccnc1)O2`?
Vaccinia stage: 8.3; Vaccinia stage Venus: 7.2

How did COc1ccc(S(=O)(=O)Nc2ccc3c(c2)C(=O)N([C@H](C)CO)C[C@H](C)[C@@H](CN(C)S(=O)(=O)c2ccc(OC)cc2)O3)cc1 do in these assays?
Vaccinia stage: 16.6; Vaccinia stage Venus: 18.0

How did O=C(N[C@@H]1CC[C@H](CC(=O)N2CCc3ccccc3C2)O[C@@H]1CO)C1CCC1 do in these assays?
Vaccinia stage: 5.1; Vaccinia stage Venus: -4.4

What do the screens show for `O=C(N[C@H]1CC[C@@H](CCNC(=O)C2CCCC2)O[C@@H]1CO)c1ccccn1`?
Vaccinia stage: -0.6; Vaccinia stage Venus: -3.1

How did O=C(C[C@H]1CC[C@@H](NC(=O)Nc2ccc(C(F)(F)F)cc2)[C@H](CO)O1)NCc1cc(F)cc(F)c1 do in these assays?
Vaccinia stage: 1.3; Vaccinia stage Venus: 12.4

What do the screens show for `C[C@@H]1CN([C@H](C)CO)C(=O)c2cccc(NC(=O)c3nc4ccccc4s3)c2O[C@@H]1CN(C)Cc1ccc(-c2ccccc2)cc1`?
Vaccinia stage: -12.8; Vaccinia stage Venus: -16.8

What do the screens show for `CN(C)C(=O)C[C@H]1C[C@@H]2c3cc(NC(=O)c4ccc5c(c4)OCO5)ccc3O[C@@H]2[C@H](CO)O1`?
Vaccinia stage: 3.4; Vaccinia stage Venus: 3.3

Results for C[C@@H]1CN([C@@H](C)CO)C(=O)CCCn2cc(nn2)CO[C@@H]1CN(C)C(=O)Oc1ccc2ccccc2c1 ?
Vaccinia stage: 10.9; Vaccinia stage Venus: 4.6

What do the screens show for `CO[C@H]1CN(C)C(=O)c2cc(NS(C)(=O)=O)ccc2OC[C@H](C)N(Cc2ccccc2)C[C@H]1C`?
Vaccinia stage: -2.1; Vaccinia stage Venus: -0.8

Results for COc1cccc(NC(=O)N(C)C[C@@H]2Oc3ncc(/C=C/c4ccccc4)cc3C(=O)N([C@@H](C)CO)C[C@@H]2C)c1 ?
Vaccinia stage: inconclusive

How did CCCNC(=O)N1[C@@H](C#N)[C@@H](c2ccc(C3=CCCCC3)cc2)[C@@H]1CO do in these assays?
Vaccinia stage: -16.8; Vaccinia stage Venus: -5.9

What do the screens show for `CO[C@H]1CC[C@H]2CCN(C)C(=O)[C@@H](C)CN(C)C(=O)c3cc(C#N)ccc3OC[C@H]1O2`?
Vaccinia stage: 14.5; Vaccinia stage Venus: 8.9

What do the screens show for `Cc1ccc(S(=O)(=O)NC[C@H]2CC[C@H]3[C@H](CN3Cc3cc(F)ccc3F)O2)cc1`?
Vaccinia stage: 5.7; Vaccinia stage Venus: 6.7

Results for CCCN(C)C[C@@H]1Oc2cc(Br)ccc2S(=O)(=O)N([C@@H](C)CO)C[C@@H]1C ?
Vaccinia stage: -1.4; Vaccinia stage Venus: -3.9

How did C[C@@H]1CN([C@H](C)CO)C(=O)c2cc(NC(=O)Nc3ccccc3)ccc2O[C@@H](C)CCCCO[C@@H]1CN(C)C(=O)c1ccccc1 do in these assays?
Vaccinia stage: 12.4; Vaccinia stage Venus: -0.1

How did C[C@H](CO)N1C[C@H](C)[C@H](CN(C)C(=O)CCC(F)(F)F)OCCCC[C@H](C)Oc2ccc(NS(=O)(=O)c3ccccc3)cc2C1=O do in these assays?
Vaccinia stage: -17.4; Vaccinia stage Venus: -13.4

Results for CN1C(=O)c2cc(NC(=O)Cc3cccs3)ccc2OC[C@@H]2O[C@@H](CC(=O)NCC3CC3)CC[C@@H]21 ?
Vaccinia stage: 18.9; Vaccinia stage Venus: 19.4

What do the screens show for `O=C(C[C@H]1C[C@@H]2c3cc(NC(=O)CC4CC4)ccc3O[C@@H]2[C@H](CO)O1)NCc1ccncc1`?
Vaccinia stage: 8.2; Vaccinia stage Venus: 7.9

What do the screens show for `CCCN1[C@H](C(=O)N2CCCCC2)[C@@H](CO)[C@@H]2Cn3c(cccc3=O)[C@@H]21`?
Vaccinia stage: 5.4; Vaccinia stage Venus: 8.1

Results for CO[C@@H]1CN(C)C(=O)c2ccc(NC(=O)c3ccccc3F)cc2OC[C@@H](C)N(C(C)=O)C[C@@H]1C ?
Vaccinia stage: 0.1; Vaccinia stage Venus: 3.5

What do the screens show for `C[C@@H]1CN([C@H](C)CO)C(=O)c2cc(NS(=O)(=O)c3cccs3)ccc2O[C@H]1CN(C)CC1CC1`?
Vaccinia stage: 3.3; Vaccinia stage Venus: 3.8

Results for C[C@@H]1CN([C@@H](C)CO)C(=O)c2cc(NC(=O)CCCCCC(=O)Nc3ccccc3N)ccc2O[C@@H]1CN(C)C(=O)Nc1ccccc1 ?
Vaccinia stage: 5.8; Vaccinia stage Venus: -4.4

What do the screens show for `CNC[C@@H]1Oc2ccc(NS(=O)(=O)c3ccc(Cl)cc3)cc2C(=O)N([C@H](C)CO)C[C@@H]1C`?
Vaccinia stage: 15.3; Vaccinia stage Venus: 11.7

Results for Cc1ccc(-c2cnc3c(c2)C(=O)N([C@@H](C)CO)C[C@H](C)[C@@H](CN(C)C)O3)cc1 ?
Vaccinia stage: 11.0; Vaccinia stage Venus: 5.1

What do the screens show for `C[C@@H]1CCCCO[C@H](CN(C)C(=O)Nc2ccc3c(c2)OCO3)[C@@H](C)CN([C@@H](C)CO)C(=O)c2cc(NC(=O)c3ccccc3)ccc2O1`?
Vaccinia stage: -21.7; Vaccinia stage Venus: -17.3

The closing 5 entries of the section above come first, to join the parts.
What do the screens show for `C[C@@H]1CN([C@H](C)CO)C(=O)c2cc(NS(=O)(=O)c3cccs3)ccc2O[C@H]1CN(C)CC1CC1`?
Vaccinia stage: 3.3; Vaccinia stage Venus: 3.8

Results for C[C@@H]1CN([C@@H](C)CO)C(=O)c2cc(NC(=O)CCCCCC(=O)Nc3ccccc3N)ccc2O[C@@H]1CN(C)C(=O)Nc1ccccc1 ?
Vaccinia stage: 5.8; Vaccinia stage Venus: -4.4

What do the screens show for `CNC[C@@H]1Oc2ccc(NS(=O)(=O)c3ccc(Cl)cc3)cc2C(=O)N([C@H](C)CO)C[C@@H]1C`?
Vaccinia stage: 15.3; Vaccinia stage Venus: 11.7

Results for Cc1ccc(-c2cnc3c(c2)C(=O)N([C@@H](C)CO)C[C@H](C)[C@@H](CN(C)C)O3)cc1 ?
Vaccinia stage: 11.0; Vaccinia stage Venus: 5.1

What do the screens show for `C[C@@H]1CCCCO[C@H](CN(C)C(=O)Nc2ccc3c(c2)OCO3)[C@@H](C)CN([C@@H](C)CO)C(=O)c2cc(NC(=O)c3ccccc3)ccc2O1`?
Vaccinia stage: -21.7; Vaccinia stage Venus: -17.3

What do the screens show for `Cc1ccc(-c2ccccc2[C@H]2[C@@H](C#N)N(c3ncc(-c4ccccc4)s3)[C@@H]2CO)cc1`?
Vaccinia stage: 9.3; Vaccinia stage Venus: 5.9

Results for C[C@@H]1CN([C@@H](C)CO)C(=O)c2cccc(NC(=O)C3CCCCC3)c2O[C@H]1CN(C)C(=O)Nc1ccc(C(F)(F)F)cc1 ?
Vaccinia stage: -11.8; Vaccinia stage Venus: -13.3

Results for COc1ccc(S(=O)(=O)N(C)C[C@H]2Oc3ccc(NC(=O)NC4CCCCC4)cc3C(=O)N([C@@H](C)CO)C[C@H]2C)cc1 ?
Vaccinia stage: -28.1; Vaccinia stage Venus: -15.6

What do the screens show for `CN1[C@H](C(=O)NC2Cc3ccccc3C2)[C@@H](CO)[C@@H]2Cn3c(ccc(-c4ccccc4)c3=O)[C@@H]21`?
Vaccinia stage: 2.2; Vaccinia stage Venus: 9.3

Results for CC(C)(C)[S@@](=O)N1Cc2cc(C(=O)NCc3ccncc3)nc(-c3cccc(-c4ccc(C#N)cc4)c3)c2[C@H]1CCO ?
Vaccinia stage: 15.1; Vaccinia stage Venus: 17.1

How did C/C=C/c1ccc2c(c1)O[C@@H](CN(C)S(=O)(=O)c1ccc(F)cc1)[C@@H](C)CN([C@@H](C)CO)S2(=O)=O do in these assays?
Vaccinia stage: inconclusive

Results for COc1ccccc1-c1ccccc1[C@@H]1[C@@H](CO)N(C(=O)C2CCC2)[C@H]1C#N ?
Vaccinia stage: -32.5; Vaccinia stage Venus: -17.0

What do the screens show for `CCCNC(=O)N1[C@H](C#N)[C@@H](c2ccccc2-c2cccc(C)c2)[C@@H]1CO`?
Vaccinia stage: -2.9; Vaccinia stage Venus: -5.3

What do the screens show for `C[C@@H]1CN([C@H](C)CO)S(=O)(=O)c2ccc(C3=CCCC3)cc2O[C@H]1CN(C)C`?
Vaccinia stage: -15.3; Vaccinia stage Venus: -24.4

Results for C[C@@H]1CN([C@H](C)CO)C(=O)Cc2cc(NC(=O)C3CC3)ccc2O[C@@H]1CN(C)S(C)(=O)=O ?
Vaccinia stage: 5.3; Vaccinia stage Venus: 11.6

What do the screens show for `C[C@H](CO)N1C[C@H](C)[C@@H](CN(C)C)Oc2ccc(NC(=O)Nc3cccc4ccccc34)cc2CC1=O`?
Vaccinia stage: -4.6; Vaccinia stage Venus: -5.3

How did CCN1[C@@H]2Cn3c(ccc(-c4cccnc4)c3=O)[C@H]1[C@@H](C(=O)NCc1ccccc1)[C@@H]2CO do in these assays?
Vaccinia stage: -12.9; Vaccinia stage Venus: -3.0

Results for C[C@@H]1CCCCO[C@@H](CN(C)C(=O)NC2CCCCC2)[C@@H](C)CN([C@H](C)CO)C(=O)c2cc(NC(=O)CCCCCC(=O)Nc3ccccc3N)ccc2O1 ?
Vaccinia stage: 8.0; Vaccinia stage Venus: 1.8

What do the screens show for `C[C@@H]1CN([C@H](C)CO)S(=O)(=O)c2ccc(-c3ccc(C(=O)N(C)C)cc3)cc2O[C@@H]1CN(C)C(=O)Nc1ccccc1F`?
Vaccinia stage: 3.4; Vaccinia stage Venus: 1.7

How did O=C(C[C@@H]1CC[C@H]2[C@@H](COC[C@H](O)CN2CC2CC2)O1)NCC1CC1 do in these assays?
Vaccinia stage: 1.9; Vaccinia stage Venus: 3.9

Results for C[C@@H]1CN([C@@H](C)CO)C(=O)c2cccc(NS(=O)(=O)c3cccs3)c2O[C@@H]1CN(C)S(=O)(=O)c1ccc(Cl)cc1 ?
Vaccinia stage: -15.7; Vaccinia stage Venus: -11.6

What do the screens show for `N#C[C@H]1[C@H](c2ccc(C3=CCCCC3)cc2)[C@H](CO)N1C(=O)NC1CCCCC1`?
Vaccinia stage: inconclusive

Results for C[C@H]1CN([C@@H](C)CO)C(=O)Cc2cc(NC(=O)Nc3ccc(F)cc3)ccc2O[C@H]1CN(C)Cc1ccc(C(F)(F)F)cc1 ?
Vaccinia stage: inconclusive

High-throughput results (PubChem)
